Choline anaer gr: growth inhibitors of anaerobic choline-fed gram-negatives, minimal medium, absorbance; Gram-negative bacterium anaerobic choline minimal medium; hits give low values; many inactives read as strong as hits in the columns shown; calls only; 0.2% of 55,000 active; AID 1963822, 2024;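 active = growth z-score on choline under -2 at 7 or 20 h with little or no fall on glycerol, limits in tiers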;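 also: stock transfer was 300 nL into about 50 µL; the organism is E. coli; final concentration not given here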
Choline anaer gr early: further read-out of Choline anaer gr, marked with its call; z-score; measured here: choline growth z-score, timepoint 1;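 score of optical density at 7 h as mean of two plates; lower means less growth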
The depositor's hits bear a star.

`Cc1cc(N2CCCC2)n2nc(CN3CCN(CC(C)C)CC3)nc2n1` gave Choline anaer gr inactive and Choline anaer gr early 0.01.
`O=C(NC1CCN(Cc2ccccc2)CC1)C1CCN(c2cc(-c3ccccc3)ncn2)CC1` gave Choline anaer gr inactive and Choline anaer gr early -1.3.
Screening CC(=O)N1c2ccc(S(=O)(=O)N3CCCC(C(=O)Nc4ccc(C)c(F)c4)C3)cc2CC1C (stereo not given) returned Choline anaer gr inactive and Choline anaer gr early 2.2.
`CCN(CC)CCSc1c(C(C)C)cnc2c1c(=O)n(C)c(=O)n2C` gave Choline anaer gr inactive and Choline anaer gr early 0.87.
CCOc1ccc(S(=O)(=O)N2CCCC2C(=O)Nc2nccs2)cc1 (stereo not given) was read as Choline anaer gr inactive and Choline anaer gr early 0.32.
`Cc1ccc(-c2cc3c(N4CCN(c5cc(C)ccc5C)CC4)nccn3n2)cc1` gave Choline anaer gr inactive and Choline anaer gr early 0.4.
Screening CC(=O)Nc1c(C)nn(-c2ccccc2)c1N1CCC(C(=O)NCCC2=CCCCC2)CC1 returned Choline anaer gr inactive and Choline anaer gr early 0.93.
CCOC(=O)c1[nH]c(C)c(CN(Cc2ccc(OC)cc2)S(=O)(=O)Cc2ccccc2)c1C was read as Choline anaer gr inactive and Choline anaer gr early 0.41.
Screening O=C(Nc1cccc(Br)c1)N1Cc2cccn2-c2ccccc21 returned Choline anaer gr inactive and Choline anaer gr early 1.4.
CC(=O)Nc1ccccc1-c1nnc(SC(C)C(=O)Nc2ccccc2C)[nH]c1=O (stereo not given) was read as Choline anaer gr inactive and Choline anaer gr early -1.2.
Screening CC(C)NC(=O)CCCCn1c(=O)c2ccccc2n(CC(=O)Nc2ccc3c(c2)OCO3)c1=O returned Choline anaer gr inactive and Choline anaer gr early 0.44.
COc1cccc(C(=O)Nc2ccc3c(c2)NC(=O)CO3)c1 was read as Choline anaer gr inactive and Choline anaer gr early 0.9.
CC(=O)Nc1ccc2nc(N3CCC(C(=O)Nc4ccc(F)cc4)CC3)cc(C)c2c1 was read as Choline anaer gr inactive and Choline anaer gr early 0.72.
CC(=O)N1CCC(C(=O)Nc2cc(-c3nnc(C)o3)sc2C)CC1 was read as Choline anaer gr inactive and Choline anaer gr early 0.17.
`CCc1nnc(NC(=O)c2sc(COc3ccc(Cl)c(C)c3)nc2C)s1` gave Choline anaer gr inactive and Choline anaer gr early 0.04.

Among those listed so far, two have an aryl methoxy group:
CCOC(=O)c1[nH]c(C)c(CN(Cc2ccc(OC)cc2)S(=O)(=O)Cc2ccccc2)c1C was read as Choline anaer gr inactive and Choline anaer gr early 0.41.
COc1cccc(C(=O)Nc2ccc3c(c2)NC(=O)CO3)c1 was read as Choline anaer gr inactive and Choline anaer gr early 0.9.

Following part
Screening CCOc1c(C(=O)OC)sc2ccc(NC(=O)NCCc3ccccc3)cc12 returned Choline anaer gr inactive and Choline anaer gr early 1.5.
`COCCNC(=O)Cc1ccc(-n2c(=O)c3ccccc3n(CC(=O)NCc3ccccc3)c2=O)cc1` gave Choline anaer gr inactive and Choline anaer gr early -0.93.
For O=C(CCC1CCCC1)N1CCC2(CC1)Nc1cc(F)ccc1-n1cccc12 the results were Choline anaer gr inactive and Choline anaer gr early -0.82.
For COc1ccc(CCNCc2cccn2-c2c(C(=O)O)cnn2-c2ccccc2)c(OC)c1 the results were Choline anaer gr inactive and Choline anaer gr early 0.23.
Screening CC(=O)N1CCOc2cc(S(=O)(=O)N3CC=C(c4ccccc4)CC3)c(C)cc21 returned Choline anaer gr inactive and Choline anaer gr early 0.07.
For O=C(Nc1c(F)cccc1F)c1cnc2sc3c(n2c1=O)CCCC3 the results were Choline anaer gr inactive and Choline anaer gr early -0.85.
For Cc1nc(-c2cc(S(=O)(=O)NCC(=O)NCc3ccc4c(c3)OCO4)c(C)s2)no1 the results were Choline anaer gr inactive and Choline anaer gr early 0.01.
Screening CC(=O)Nc1c(C)nn(-c2ccccc2)c1N1CCC(C(=O)Nc2ccccc2Cl)CC1 returned Choline anaer gr inactive and Choline anaer gr early -0.2.
`COc1ccc(C2CC(c3cc(Cl)ccc3O)=NC3(CCN(C)CC3)N2)cc1OC` (stereo not given) gave Choline anaer gr inactive and Choline anaer gr early 1.5.
Screening Cc1ccccc1-c1nc2nc(C)c(CC(=O)N3CCCC3)c(C)n2n1 returned Choline anaer gr inactive and Choline anaer gr early -0.31.
Cc1ccc(C)c(NC(=O)Nc2nc(-c3ccccc3)cs2)c1 was read as Choline anaer gr inactive and Choline anaer gr early 2.2.
COc1cccc(CN2CCCC2c2c(C)noc2C)c1OC (stereo not given) was read as Choline anaer gr inactive and Choline anaer gr early 0.21.
Screening CN(C)c1ncncc1N1CCC(C(=O)NCCCN2CCCC2=O)CC1 returned Choline anaer gr inactive and Choline anaer gr early 0.59.
For COc1ccccc1OCc1nn2c(-c3ccccn3)nnc2s1 the results were Choline anaer gr inactive and Choline anaer gr early 0.32.
Screening COc1cc(NC(=O)c2cc(C(F)(F)F)n(C)n2)cc(OC)c1 returned Choline anaer gr inactive and Choline anaer gr early -0.11.
Screening CN1CCN(c2ncnc3c2cnn3CC(=O)NCCN2CCCCC2)CC1 returned Choline anaer gr inactive and Choline anaer gr early 1.
CN1CCCN(C(=O)C2CC(=O)N(c3ccc4c(c3)CCN4C(=O)C3CC3)C2)CC1 (stereo not given) was read as Choline anaer gr inactive and Choline anaer gr early -2.2.
Screening O=C(NCCc1csc(-c2ccccc2)n1)[C@H]1CCCN1C(=O)c1cccc(Cl)c1 returned Choline anaer gr inactive and Choline anaer gr early 0.58.
Screening O=C(Nc1cc(F)ccc1F)C1CCN(S(=O)(=O)c2cccnc2)CC1 returned Choline anaer gr inactive and Choline anaer gr early -1.1.
`Cc1ccc(-c2onc(C)c2C)cc1S(=O)(=O)CCC(=O)N1CCc2ccccc2C1` gave Choline anaer gr inactive and Choline anaer gr early -0.21.
`COCCNc1ncnc2onc(-c3cccc(Cl)c3)c12` gave Choline anaer gr inactive and Choline anaer gr early -0.15.
Screening CC1CCCN(C(=O)c2snc3c(=O)n(C)c(=O)[nH]c23)C1 (stereo not given) returned Choline anaer gr inactive and Choline anaer gr early 0.53.
Screening N[C@@H](CC(=O)O)C(=O)O returned Choline anaer gr inactive and Choline anaer gr early 0.2.
For Cn1c(SCC(=O)NCc2ccc(Cl)cc2)nc2cc(-c3ccccc3)sc2c1=O the results were Choline anaer gr inactive and Choline anaer gr early 1.1.
O=C1c2ccncc2C(=O)N1c1ccccc1F was read as Choline anaer gr inactive and Choline anaer gr early -0.01.
`O=C(Nc1ccc(Cl)cc1)N1CCN(C(=O)c2nsc3ccccc23)CC1` gave Choline anaer gr inactive and Choline anaer gr early -0.15.
Cc1cc2c3c([nH]c2cc1S(=O)(=O)NCCc1ccc(S(N)(=O)=O)cc1)CC(C)(C)CC3=O was read as Choline anaer gr inactive and Choline anaer gr early 1.
For O=C(CCC1=NS(=O)(=O)c2ccccc2N1)Nc1ccc(Cl)cc1 the results were Choline anaer gr inactive and Choline anaer gr early -0.02.
O=C(Nc1cccc(-c2nc(-c3ccccc3)no2)c1)c1ccccc1F was read as Choline anaer gr inactive and Choline anaer gr early 1.3.
O=C(Nc1cccc(Cl)c1)c1cnc2ccccn2c1=O was read as Choline anaer gr inactive and Choline anaer gr early -1.1.
`COc1ccc(CCNC(=O)C2CCCN(S(=O)(=O)c3cn(C)cn3)C2)cc1OC` (stereo not given) gave Choline anaer gr inactive and Choline anaer gr early -0.24.
O=C(CCc1nc(CSc2nnc(-c3ccccc3)o2)no1)Nc1nccs1 was read as Choline anaer gr inactive and Choline anaer gr early -0.2.
`CCCCC[C@H](O)/C=C/[C@@H]1[C@@H](C/C=C/CCCC(=O)O)[C@H](O)C[C@H]1O` gave Choline anaer gr inactive and Choline anaer gr early 0.14.
Screening CCNC(=O)c1cn2c3c(cccc3c1=O)CC2 returned Choline anaer gr inactive and Choline anaer gr early -1.3.
CCOC(=O)Cc1ccc(NC(=O)N2CCc3c(c(C(=O)N4CCCCC4)nn3C)C2)cc1 was read as Choline anaer gr inactive and Choline anaer gr early -0.51.
Screening COc1ccc(Cc2nc3ccccc3n2CC(O)COc2ccccc2)cc1 (stereo not given) returned Choline anaer gr inactive and Choline anaer gr early -0.52.
CCOC(=O)C1CCN(c2nc(-c3ccc(OC)cc3)no2)CC1 was read as Choline anaer gr inactive and Choline anaer gr early -0.63.
`CCCCCn1c(=O)[nH]c2cc(C(=O)NCCCN(CC)CC)ccc2c1=O` gave Choline anaer gr inactive and Choline anaer gr early 0.59.
Screening Cc1cc(N2CCN(C(=O)C3CCC3)CC2)nc2nncn12 returned Choline anaer gr inactive and Choline anaer gr early 0.49.
`Cc1nc(CC(=O)Nc2ccc(C)c(C)c2)cs1` gave Choline anaer gr inactive and Choline anaer gr early -0.02.
COc1ccc(NC(=O)Nc2c(C)nc3nc[nH]n3c2=O)cc1OC was read as Choline anaer gr inactive and Choline anaer gr early -0.97.
`CCC(C)NC(=O)N1CCN(C(=O)c2nsc3ccccc23)CC1` (stereo not given) gave Choline anaer gr inactive and Choline anaer gr early 0.49.
For CCOC(=O)c1c(NC(=O)c2sc(C)nc2C)sc2c1CCC(C)C2 (stereo not given) the results were Choline anaer gr inactive and Choline anaer gr early 0.27.
For Cc1ccc(C(=O)Cn2c(=O)n3nc(-c4ccccc4)nc3c3ccccc32)c(C)c1 the results were Choline anaer gr inactive and Choline anaer gr early 0.96.
`Cc1cc2c3c([nH]c2cc1S(=O)(=O)Nc1ccc(S(N)(=O)=O)cc1)CC(C)(C)CC3=O` gave Choline anaer gr inactive and Choline anaer gr early 0.47.
Screening CN(C)S(=O)(=O)c1ccc2c(c1)ncn2CCC(=O)NC1CCN(Cc2ccccc2)CC1 returned Choline anaer gr inactive and Choline anaer gr early 0.33.
`COc1ccc(C2C3=C(CC(c4ccc(O)c(OC)c4)CC3=O)Nc3onc(C)c32)c(OC)c1` (stereo not given) gave Choline anaer gr inactive and Choline anaer gr early 0.11.
For CCOC(=O)CSc1nc2sc(C(=O)OCC)c(C)c2c(=O)n1Cc1ccccc1OC the results were Choline anaer gr inactive and Choline anaer gr early 1.1.
Screening CN1CCCc2cc(C(=O)N3CCCC3)sc21 returned Choline anaer gr inactive and Choline anaer gr early 0.38.
Screening CCOc1c(C)cnc2c1c(=O)n(CC(=O)Nc1c(C)cc(C)cc1C)c(=O)n2C returned Choline anaer gr inactive and Choline anaer gr early 0.39.
`COc1ccc(C(C)(C)C)cc1S(=O)(=O)Nc1ccc(Nc2cc(N(C)C)nc(C)n2)cc1` gave Choline anaer gr inactive and Choline anaer gr early -0.1.
For CN1C(=O)c2cc(C(=O)NCc3ccccc3Cl)nn2CC1(C)C(=O)NC1CCCC1 (stereo not given) the results were Choline anaer gr inactive and Choline anaer gr early 1.
Screening O=c1c2c(-c3ccccc3)csc2ncn1Cc1cccnc1 returned Choline anaer gr inactive and Choline anaer gr early 0.54.
Screening Cc1nn(-c2ccc3nnc(C)n3n2)c2c1C(c1cccc(OC3CCCC3)c1)CC(=O)N2 (stereo not given) returned Choline anaer gr inactive and Choline anaer gr early 0.
O=C(CNS(=O)(=O)c1cc(-c2noc(C3CCC3)n2)cs1)Nc1ccc(F)c(F)c1 was read as Choline anaer gr inactive and Choline anaer gr early 0.43.
For Cc1nc(Nc2ccc(NC(=O)Nc3ccc4c(c3)OCCO4)cc2)cc(N2CCCCC2)n1 the results were Choline anaer gr inactive and Choline anaer gr early 0.01.
For CCC(C)NS(=O)(=O)c1ccc2c(c1)c(=O)n(CCC(=O)N1CCCC1)c(=O)n2C (stereo not given) the results were Choline anaer gr inactive and Choline anaer gr early 0.4.
`Cc1ccc(-n2nnc(C(=O)OCc3ccccc3C)c2C)cc1Cl` gave Choline anaer gr inactive and Choline anaer gr early 0.47.
For CN(CC(=O)NC1CCCCC1)S(=O)(=O)c1c[nH]c(C(=O)N2CCCC2)c1 the results were Choline anaer gr inactive and Choline anaer gr early 0.84.
Screening COc1ccccc1-c1c(C)nn2c(SCC(=O)NCc3ccc(Cl)cc3)cc(C)nc12 returned Choline anaer gr inactive and Choline anaer gr early -2.3.

Some of these compounds in order of molecular weight, smallest number first.
For CN(CC(=O)NC1CCCCC1)S(=O)(=O)c1c[nH]c(C(=O)N2CCCC2)c1 the results were Choline anaer gr inactive and Choline anaer gr early 0.84.
For CCC(C)NS(=O)(=O)c1ccc2c(c1)c(=O)n(CCC(=O)N1CCCC1)c(=O)n2C (stereo not given) the results were Choline anaer gr inactive and Choline anaer gr early 0.4.
For CN1C(=O)c2cc(C(=O)NCc3ccccc3Cl)nn2CC1(C)C(=O)NC1CCCC1 (stereo not given) the results were Choline anaer gr inactive and Choline anaer gr early 1.

Returning to the listing, starting two compounds before the break.
For CN(CC(=O)NC1CCCCC1)S(=O)(=O)c1c[nH]c(C(=O)N2CCCC2)c1 the results were Choline anaer gr inactive and Choline anaer gr early 0.84.
Screening COc1ccccc1-c1c(C)nn2c(SCC(=O)NCc3ccc(Cl)cc3)cc(C)nc12 returned Choline anaer gr inactive and Choline anaer gr early -2.3.
For C=CCOC(=O)c1sc(NC(=O)CSc2nnc3cc(C)c4ccccc4n23)nc1C the results were Choline anaer gr inactive and Choline anaer gr early 0.8.
Screening COc1ccc(-c2cc(OCC(=O)Nc3cc(Cl)ccc3OC)c3ccccc3n2)cc1 returned Choline anaer gr inactive and Choline anaer gr early 1.
CCOC(=O)c1nc2cc(C)c(C)cc2nc1NCc1ccco1 was read as Choline anaer gr inactive and Choline anaer gr early 0.73.
Screening Cn1c(=O)c(=O)[nH]c2cc(-c3noc(/C=C/c4ccccc4Cl)n3)ccc21 returned Choline anaer gr inactive and Choline anaer gr early 0.12.
Screening O=S(=O)(c1ccc2c(c1)OCCO2)N1CCN(Cc2nc3ccccc3o2)CC1 returned Choline anaer gr inactive and Choline anaer gr early -1.1.

Looked up by compound from the list above:
For C=CCOC(=O)c1sc(NC(=O)CSc2nnc3cc(C)c4ccccc4n23)nc1C the results were Choline anaer gr inactive and Choline anaer gr early 0.8.
Screening Cn1c(=O)c(=O)[nH]c2cc(-c3noc(/C=C/c4ccccc4Cl)n3)ccc21 returned Choline anaer gr inactive and Choline anaer gr early 0.12.

Assay outcomes (PubChem BioAssay)

This is a subset (hit frequency here may not be typical).
